Calb biofilm kill: mixtures killing C. albicans biofilm; C. albicans biofilm persisters + clotrimazole, fluorescence viability; primary screen in compound mixtures of four per well; inhibition, % at 7.6 µM; actives 0.02% (n = 120,000);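 active = inhibition above 30.3% in the primary screen of four-compound pools, then above 30% when the compound was retested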;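 note: compounds exposed to preformed 24 h biofilms for 48 h; the number belongs to the whole pool; some results filed as inactive read as strong as hits; inactives centre near 12; 0% = biofilm with clotrimazole alone and 100% = kill control; retested singly at about 60 µM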
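Assay system: C. albicans biofilms / Medium: RPMI/MOPS medium, pH 7.0 / Schedule: biofilm formation 24 h, compound exposure 48 h, 37 °C / Measured by: Alamar Blue fluorescence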
* marks the source's active call; other numbers are inactive results.

SMILES	Calb biofilm kill
Cc1c(C(=O)N/N=C/c2ccc(Cl)cc2)[nH]c2ccc(Cl)cc12	14
COC(=O)N/N=C/c1ccc(-c2ccc(Cl)cc2Cl)o1	19
COc1ccc(N2CCN(C(=O)Cn3cncn3)CC2)cc1	13
COc1ccccc1Oc1ncnc2c1oc1ccccc12	-7
COc1ccccc1Oc1ccc2c(c1)C(=O)N(c1cccc3ncccc13)C2=O	-6
C/C(=N/O)c1ccc2c(c1)OCCOCCOc1cc(/C(C)=N/O)ccc1OCCOCCO2	10
CC1CCc2ccccc2N1C(N)=Nc1ccccc1 (configuration not stated)	12
Clc1ccccc1/C=C/c1ccnc2ccccc12	-1
O=C(O)c1cccnc1Sc1ccccc1Cl	17
CC1(c2ccc(O)cc2)NC(=O)N(c2ccccc2)N1 (configuration not stated)	22
Cc1c(Cl)ccc(S(=O)(=O)N2CCN=C2c2ccccc2)c1Cl	-8
COc1cc(SC)ccc1C(=O)NC(C)C	16
O=C(NC(=O)c1ccc(F)cc1)Nc1nc(-c2cccs2)cc(C(F)(F)F)n1	9
COc1ccccc1NS(=O)(=O)c1cccc(C(=O)N/N=C/c2ccc(C)o2)c1	10
O=C(C1CCCO1)N1CCN(C(=S)Nc2ccc(Cl)c(Cl)c2)CC1 (configuration not stated)	19
CCCCC(=O)N/N=C(\C)CC(=O)Nc1ccccc1Br	5
Cc1ccc(S(=O)(=O)NNC(=O)CCC(=O)Nc2ccc(C)cc2C)cc1	15
Cc1ccc(N=Nc2cc(C)ccc2N)cc1	23
O=C1Nc2ccccc2Oc2cc([N+](=O)[O-])cc(Oc3ccccc3)c21	4
NS(=O)(=O)c1ccc(N=Nc2c[nH]c(=O)c(O)c2)cc1	20
NC(=O)N/N=C/c1ccccc1OC(=O)c1ccccc1Br	-10
O=C(Nc1cc(Sc2nc3ccccc3s2)cc([N+](=O)[O-])c1)c1ccccc1	17
COC(=O)Cn1c(C)nc([N+](=O)[O-])c1Br	12
S=C(Nc1ccc(OCc2ccccc2)cc1)Nc1cccc(Cl)c1Cl	5
CCOC(=O)c1cc(C)nc(SC)c1C#N	18
Cc1cc(O)ccc1Nc1nc(-c2cccs2)cs1	17
COCCCN(C(=S)Nc1cc(C)cc(C)c1)C(C)c1ccncc1 (configuration not stated)	12
COc1cc(C)c(NC(=O)C(=S)NCc2ccccc2)cc1C	10
Cc1ccc(-n2nc(C)cc2Nc2ncc(Cl)cc2Cl)cc1	22
CCC/C(C)=C/c1ccc(CC)cn1	9

For convenience, 10 of the compounds above:
SMILES	Calb biofilm kill
Cc1c(C(=O)N/N=C/c2ccc(Cl)cc2)[nH]c2ccc(Cl)cc12	14
COC(=O)N/N=C/c1ccc(-c2ccc(Cl)cc2Cl)o1	19
COc1ccc(N2CCN(C(=O)Cn3cncn3)CC2)cc1	13
COc1ccccc1Oc1ncnc2c1oc1ccccc12	-7
COc1ccccc1Oc1ccc2c(c1)C(=O)N(c1cccc3ncccc13)C2=O	-6
C/C(=N/O)c1ccc2c(c1)OCCOCCOc1cc(/C(C)=N/O)ccc1OCCOCCO2	10
CC1CCc2ccccc2N1C(N)=Nc1ccccc1 (configuration not stated)	12
Clc1ccccc1/C=C/c1ccnc2ccccc12	-1
O=C(O)c1cccnc1Sc1ccccc1Cl	17
CC1(c2ccc(O)cc2)NC(=O)N(c2ccccc2)N1 (configuration not stated)	22

(continued)
SMILES	Calb biofilm kill
COc1cc(OC)cc(C(=O)N[C@H](C(=O)Nc2nc(-c3ccc(F)c(F)c3)cs2)C(C)C)c1	23
COc1ccc2c(c1)CCC/C2=N/OC(=O)c1ccccc1OC	14
CCOC(=O)Cn1c(=N)n(CCOc2ccc(F)cc2)c2ccccc21	27
COc1ccc(/C=C(\NC(=O)c2ccc(C)cc2)C(=O)NCC2CCCO2)cc1 (configuration not stated)	18
CN1N=C(/C=C/c2ccccc2)CCC1=O	14
CC(C)(C)c1cc(NC(=O)CSc2nnc(N)s2)n(-c2ccccc2)n1	-9
O=C(/C=C/c1cccc([N+](=O)[O-])c1)OC1CCCCC1=O (configuration not stated)	14
O=C(c1cc(C2CC2)nc2ccc(Br)cc12)N1N=C(C(F)F)CC1(O)C(F)F (configuration not stated)	18
CNC(=S)/N=C/NOCc1c(Cl)cccc1Cl	20
CCn1cc(C(=O)N2CCc3ccccc32)c(=O)c2cc(S(=O)(=O)N3CCCC3)ccc21	20
CN(CCC1CCOCC1)Cc1cn[nH]c1-c1ccc(-c2ccccc2)cc1	30
CCOc1ccc(NC(=O)COC(=O)CCS(=O)(=O)c2ccc(C)cc2)cc1	9
O=c1c2c3c(sc2nc(NCCO)n1CCc1ccccc1)CCCCC3	6
COc1ccc(C(C[N+](=O)[O-])C2(c3ccc(OC)c(OC)c3)C(=O)c3ccccc3C2=O)cc1 (configuration not stated)	3
CC(C)c1ccc(Nc2nnc(SCC(=O)c3nnc(-c4ccccc4)o3)s2)cc1	10
CCc1nc2sc3c(Cl)ncnc3c2c2c1CCCC2	2
CC(C)NC(=O)NC(=O)CSc1ncccn1	17
COc1cc(OC)cc(C(=O)NCC(=O)OCC(=O)Nc2ncc(Cl)cc2Cl)c1	18
O=C(COc1ccccc1[N+](=O)[O-])N/N=C/c1ccc[nH]1	15
CC1CCCCC12NC(=O)N(CC(=O)NCc1ccc3c(c1)OCO3)C2=O (configuration not stated)	15
Cn1c(SCC(=O)c2ccccc2)nnc1-c1ccncc1	-12
CCOc1ccc(Nc2nc(N3CCCC3)nc(N3CCN(c4ccc(OC)cc4)CC3)n2)cc1	14
O=C(CCCCCCC(=O)c1ccccc1)c1ccccc1	5
COc1ccc(/C=C(/NC(=O)/C=C/c2ccccc2)C(=O)N2CCOCC2)cc1	23
N#C/C(=C/c1ccco1)C(N)=S	6
Cc1[nH]c(C)c2c(=O)n(Cc3ccc(Cl)cc3)ncc12	15
CC(C)[C@H](NC(N)=O)C(=O)NCCc1ccc(Cl)cc1Cl	-5
O=C(c1ccco1)c1cn(CC(=O)N2CCCCCC2)c2ccccc12	9
Fc1ccccc1/C=N/NC(=S)Nc1ccc(Cl)cc1Cl	19
Cc1cc(N2CCOCC2)nc2ccc(NC(=S)N3CCN(c4ccccc4)CC3)cc12	12
CN(C)CCNc1nc(S(=O)(=O)c2ccccc2)c(Cl)s1	7
Cc1nn(CCCC(=O)Nc2c(F)cc(F)cc2Br)c(C)c1[N+](=O)[O-]	14
N#Cc1ccc(COC(=O)CSc2nnc(N)s2)cc1	23
CCSc1ccc(-c2ccco2)nn1	14
CCc1c(C#N)c(SCc2c(C)noc2C)nc2c1C(=O)CC(C)(C)C2	-4
COC(=O)Cn1c(=O)c(C)nc2ccccc21	14
CC(C)(C)NC(=O)NCC1CCCC1NC(=O)NC(C)(C)C (configuration not stated)	4
O=C1c2cccc3cccc(c23)C(=O)N1/N=C/c1ccc(O)cc1O	22
COc1ccccc1NC(=O)Cn1cnc2sc(C)c(S(=O)(=O)N3CCCCC3)c2c1=O	16
CC(C)C1Oc2ccccc2N(CC(=O)N(Cc2ccncc2)Cc2ccco2)C1=O (configuration not stated)	-6

The final 6 records of the part above are carried over, then new ones follow:
SMILES	Calb biofilm kill
CCc1c(C#N)c(SCc2c(C)noc2C)nc2c1C(=O)CC(C)(C)C2	-4
COC(=O)Cn1c(=O)c(C)nc2ccccc21	14
CC(C)(C)NC(=O)NCC1CCCC1NC(=O)NC(C)(C)C (configuration not stated)	4
O=C1c2cccc3cccc(c23)C(=O)N1/N=C/c1ccc(O)cc1O	22
COc1ccccc1NC(=O)Cn1cnc2sc(C)c(S(=O)(=O)N3CCCCC3)c2c1=O	16
CC(C)C1Oc2ccccc2N(CC(=O)N(Cc2ccncc2)Cc2ccco2)C1=O (configuration not stated)	-6
S=c1[nH]nc(CSCc2ccccc2Cl)n1C1CCCCC1	-3
Cc1ccc(NC(=O)C2CCCN2S(=O)(=O)c2ccc3c(c2)n(C)c(=O)c(=O)n3C)cc1 (configuration not stated)	23
COC(=O)CN(C#N)c1nc(NC(C)C)nc(OC)n1	11
CC1(C)CC(N=c2cc(-c3ccccc3)oc3ccc(Cl)cc23)CC(C)(C)N1	16
CCOc1ccc(CNC(=S)N/N=C/c2ccncc2)cc1	23
CC(CCc1ccccc1)NC(=O)Cc1ccccc1 (configuration not stated)	16
Cc1cc(C(=O)OCC(=O)NCc2ccccc2)c(C)o1	-5
CCC(C(=O)OCC(=O)Nc1ccc(SC(F)F)cc1)c1ccccc1 (configuration not stated)	9
CN(NC(=O)c1ccccc1F)c1ncccc1[N+](=O)[O-]	16
CCC1CCc2c(sc(NC(=O)C3c4ccccc4Oc4ccccc43)c2C(N)=O)C1 (configuration not stated)	19
CN(Cc1ccccc1)C(=O)COc1ccccc1	13
COc1cc(OC)cc(C(=O)N[C@H](C(=O)OCC(=O)Nc2ccc(C(N)=O)cc2)C(C)C)c1	9
O=C(N/N=C/c1ccccc1C(F)(F)F)c1ccc(O)cc1	3
c1ccc2c(c1)nc(N1CCCCC1)c1ccccc12	-5
CCN1C(=O)/C(=C/c2cccs2)S/C1=N\S(=O)(=O)c1ccc(C)cc1	11
COc1cc(CCN2C(=O)c3cccc4cccc(c34)C2=O)c(S(=O)(=O)NCCO)cc1OC	19
Cc1ccc(-n2ncc(Cl)c2C(=O)NC2CC2)cc1	18
CC1CCc2cc(F)ccc2N1C(=O)C12CCC(C)(C(=O)O1)C2(C)C (configuration not stated)	7
CCCn1cc(S(=O)(=O)CC(=O)Nc2ccc(OC)cc2OC)c2ccccc21	7
CCC(C)(C)NC(=O)C(c1ccccc1)N(Cc1cccnc1)C(=O)c1csnn1 (configuration not stated)	13
CN1CCN(CCC(=O)N/N=C/c2cc([N+](=O)[O-])ccc2O)CC1	9
O=C(NCc1ccc2c(c1)OCO2)c1ccc(S(=O)(=O)C(F)F)cc1	6
CCOCCN1CCN(C(=O)CN2CCCC2=O)CC1	14
CC1=Nc2cc(C(=O)O)ccc2Sc2ccc(Br)cc21	22
CCCCN(C)Cc1c(C)[nH]c2ccccc2c1=O	3
CC(C)CCn1nnnc1CN1CCN(c2ccccc2)CC1	11
Cc1ccc(NC(=S)N2CCCC(c3ccccc3)=N2)cc1	5
N/C(=N\OC(=O)c1ccccc1Cl)c1ccncc1	6
Nc1nc(Cl)c(C=O)c(N2CCCCC2)n1	12
O=C(/C=C/c1ccc(OCCCF)cc1)Nc1ccnc(-c2cccnc2)n1	10
COc1ccc2nc(COC(=O)c3cccc([N+](=O)[O-])c3)c(C(C)=O)[n+]([O-])c2c1	6
CSC(=Nc1ccc(Cl)cc1)N[n+]1ccccc1	18
COc1ccc(NC(=O)CC23CC4CC(C2)CC(n2nnc(C)n2)(C4)C3)cc1	19
Cc1ccc(NC(=O)CSc2nc3ccccc3c(=O)n2CCCC(=O)NCCCN2CCOCC2)cc1C	15
CN1CCNC(=O)C1CC(=O)NCCC1=CCCCC1 (configuration not stated)	-3
CN1CCN(C(=O)c2ccc(CN(c3ccccc3)S(=O)(=O)c3ccccc3)cc2)CC1	16
CCOc1cc(N2CCOCC2)c(OCC)cc1NC(=O)CN1C(=O)C2C3C=CC(C3)C2C1=O (configuration not stated)	2
O=C(N/N=C/c1cccn1-c1cccc(C(=O)O)c1)Nc1ccccc1	4
COC(=S)Nc1cccc(C(F)(F)F)c1	5
COc1ccc(S(=O)(=O)n2nc(OC(=O)c3cccs3)cc2NC(=O)c2cccs2)cc1	19
O=C1C2CC(O)CN2C(=O)N1c1ccccc1 (configuration not stated)	8
COc1ccc(CCNC(=O)C2CCCN(c3ncccn3)C2)cc1 (configuration not stated)	17
Cc1cc(C)c(S(=O)(=O)N(C)CC(=O)NCc2ccncc2)c(C)c1	6
S=C1NCN(C2CCCCC2)CN1CCc1ccccc1	19
S=C(N/N=C/c1ccc2ncccc2c1)Nc1ccccc1	5
COc1cccc(OC)c1C(=O)Nc1nc2ccc([N+](=O)[O-])cc2s1	10
Fc1ccc(NC(=S)NCc2ccccc2Cl)cc1	15
COc1cc(/C=C/CN2CCN(CCC(C)C)C(CCO)C2)ccc1O (configuration not stated)	-9
c1ccc(-c2cc(-c3ccc(N4CCOCC4)cc3)nc3ccccc23)cc1	1
CCOC(=O)c1sc(=S)n(C)c1NC(=O)c1ccc(F)cc1	21

Carrying on.
SMILES	Calb biofilm kill
N#CCCN(C(=O)COC(=O)COc1ccc(Cl)cc1)c1ccccc1	16
Cc1ccc(-n2cccc2/C=C2/C(=N)N3C(=NC2=O)SN=C3S(C)(=O)=O)cc1	13
Cc1cccc(Cl)c1NC(=O)N1CCCN(c2nc3ccc(Cl)cc3s2)CC1	12
CC(C)[C@H](NS(=O)(=O)/C=C/c1ccccc1)C(=O)OCC(=O)NC(N)=O	5
O=C(N/N=C/c1ccncc1)c1ccccc1OCc1ccc(Br)cc1	-3
COc1ccc(C(C)=O)cc1COc1cc(C)c(Cl)c(C)c1	29
CC(C)(C)c1cc(C(=O)N/N=C/c2ccccc2O)n(-c2ccccc2)n1	17
Nc1nc(SCC(=O)Nc2ccc(Cl)cn2)n[nH]1	8
Cn1c(=O)cc2c3c(c(N4CCCCC4)ccc31)C(=O)c1ccccc1-2	33
CCCCN1C(C)=CC(=C2C(=O)c3ccccc3C2=O)C=C1C	2
O=C(N/N=C/c1ccncc1)C12CC3CC(CC(C3)C1)C2	19
N#Cc1ccc(OCCOCCNC2CCCC2)cc1	-11
CCCCN(C)C(=O)CC(NS(=O)(=O)c1ccc(NC(C)=O)cc1)C(C)C (configuration not stated)	-6
COc1ccc(S(=O)(=O)NCC2CCC(C(=O)N3CCC4(CC3)OCCO4)CC2)cc1 (configuration not stated)	7
CC12CCC(C[N+](C)(C)C1)C2(C)C (configuration not stated)	15
CCOC(=O)N1CCc2c(sc(NC(=O)Cc3ccccc3)c2C(=O)c2ccc(OC)cc2)C1	7
O=C(N/N=C/c1cccc([N+](=O)[O-])c1)c1ccc(Br)cc1	3
Cn1cccc1/C=C(/C#N)C(N)=S	11
C/C(=N\Nc1cccc(Cl)c1)c1ccc(-n2ccnc2)cc1	17
CCCCCC#CCC#CCC#CCC#CCCCC(=O)O	13
Cc1nccn1CCCN1C(=O)CNC1=S	5
O=C(COC(=O)c1ccc2c(c1)OCO2)Nc1nc(-c2ccccc2)cs1	13

Some of the compounds tested, so the mix of outcomes need not match the whole.
